High-throughput results from PubChem BioAssay.
Ran FRET: inhibitors of Ran–importin-beta complex formation, primary screen, biochemical, CFP-Ran/YFP-importin-beta FRET, RCC1, cell-free (AID 434961); Regulator of chromosome condensation (Homo sapiens) + GTP-binding nuclear protein Ran …; CFP-Ran/YFP-importin-beta FRET, cell-free; stronger effect = higher value; inhibition, %; hit rate 0.2% among 7,700;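 active means more than half of the replicate wells above 15% inhibition; inconclusive means exactly half above it; inactive means fewer than half above it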;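 further: 0% = DMSO wells and 100% inhibition = RanGDP control wells on each plate; stock of unstated strength diluted about 400-fold; mean of two wells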
Starred values were filed as active, the others as inactive; ? = inconclusive.

A first look:
Ran FRET | SMILES
7.2 | CNC[C@@H]1OCc2cn(nn2)CCCC(=O)N([C@@H](C)CO)C[C@@H]1C
2.5 | C[C@@H]1CN([C@H](C)CO)C(=O)c2cc(NC(=O)Nc3ccccc3)ccc2O[C@@H](C)CCCCO[C@H]1CN(C)Cc1ccncc1
3.8 | COc1ccc(S(=O)(=O)N(C)C[C@@H]2Oc3ccc(NS(=O)(=O)c4cn(C)cn4)cc3C(=O)N([C@H](C)CO)C[C@H]2C)cc1
3.3 | C[C@H](CO)N1C[C@H](C)[C@@H](CN(C)C(=O)Nc2ccccc2)Oc2ccc(NC(=O)C3CC3)cc2CC1=O

The whole of this part, from the start:
Ran FRET | SMILES
7.2 | CNC[C@@H]1OCc2cn(nn2)CCCC(=O)N([C@@H](C)CO)C[C@@H]1C
2.5 | C[C@@H]1CN([C@H](C)CO)C(=O)c2cc(NC(=O)Nc3ccccc3)ccc2O[C@@H](C)CCCCO[C@H]1CN(C)Cc1ccncc1
3.8 | COc1ccc(S(=O)(=O)N(C)C[C@@H]2Oc3ccc(NS(=O)(=O)c4cn(C)cn4)cc3C(=O)N([C@H](C)CO)C[C@H]2C)cc1
3.3 | C[C@H](CO)N1C[C@H](C)[C@@H](CN(C)C(=O)Nc2ccccc2)Oc2ccc(NC(=O)C3CC3)cc2CC1=O
-2.5 | C[C@@H]1CCCCO[C@H](CN(C)C(=O)Nc2ccccc2)[C@H](C)CN([C@@H](C)CO)C(=O)c2cc(NC(=O)c3ccccc3)ccc2O1
-2.9 | CNC[C@H]1OCCCC[C@@H](C)Oc2ccc(NC(=O)c3ccncc3)cc2C(=O)N([C@H](C)CO)C[C@H]1C
? | C[C@H](CO)N1C[C@H](C)[C@H](CN(C)C(=O)Nc2ccc(F)cc2)Oc2ccc(NC(=O)C3CC3)cc2C1=O
-4.4 | C[C@@H]1CCCCO[C@@H](CN(C)C(=O)CCCN(C)C)[C@@H](C)CN([C@H](C)CO)C(=O)c2cc(NC(=O)Cc3ccccc3)ccc2O1
5.7 | C[C@H](CO)N1C[C@H](C)[C@H](CN(C)C(=O)CCCN(C)C)OCCCC[C@H](C)Oc2ccc(NC(=O)Nc3ccccc3)cc2C1=O
0.1 | C[C@H](CO)N1C[C@H](C)[C@@H](CN(C)S(=O)(=O)c2cccs2)Oc2ccc(NC(=O)CCN3CCOCC3)cc2CC1=O
4.7 | C[C@@H]1CN([C@H](C)CO)C(=O)c2cc(NC(=O)Nc3ccc(F)cc3)ccc2O[C@@H](C)CCCCO[C@H]1CN(C)Cc1ccc(C(=O)O)cc1
-1.8 | COc1ccc(S(=O)(=O)N(C)C[C@@H]2Oc3ccc(NC(=O)CCC(F)(F)F)cc3C(=O)N([C@H](C)CO)C[C@@H]2C)cc1
2.9 | C[C@@H]1CN([C@H](C)CO)C(=O)c2cccc(NS(C)(=O)=O)c2O[C@H]1CN(C)CC1CC1
3.6 | C[C@H](CO)N1C[C@H](C)[C@H](CN(C)S(=O)(=O)c2cccs2)Oc2ccc(NC(=O)NC3CCCCC3)cc2CC1=O
-2.4 | C[C@H]1CN([C@@H](C)CO)C(=O)c2cccc(NS(=O)(=O)c3ccccc3)c2O[C@@H]1CN(C)C(=O)Nc1ccc(C(F)(F)F)cc1

Another view of four compounds above.
SMILES	Ran FRET
C[C@@H]1CCCCO[C@H](CN(C)C(=O)Nc2ccccc2)[C@H](C)CN([C@@H](C)CO)C(=O)c2cc(NC(=O)c3ccccc3)ccc2O1	-2.5
CNC[C@H]1OCCCC[C@@H](C)Oc2ccc(NC(=O)c3ccncc3)cc2C(=O)N([C@H](C)CO)C[C@H]1C	-2.9
C[C@H](CO)N1C[C@H](C)[C@H](CN(C)C(=O)Nc2ccc(F)cc2)Oc2ccc(NC(=O)C3CC3)cc2C1=O	?
C[C@@H]1CCCCO[C@@H](CN(C)C(=O)CCCN(C)C)[C@@H](C)CN([C@H](C)CO)C(=O)c2cc(NC(=O)Cc3ccccc3)ccc2O1	-4.4

(continued)
Ran FRET | SMILES
-1.2 | C[C@H]1CN([C@@H](C)CO)C(=O)c2cccc(NS(C)(=O)=O)c2O[C@H]1CN(C)Cc1ccc(Cl)c(Cl)c1
-1.1 | C[C@@H]1CN([C@H](C)CO)C(=O)c2cc(NC(=O)CCN3CCOCC3)ccc2O[C@H]1CN(C)C(=O)Nc1ccccc1
-3.5 | C[C@H]1CN([C@@H](C)CO)C(=O)CCCn2nncc2CO[C@H]1CN(C)Cc1ccc(Oc2ccccc2)cc1
-2.9 | C[C@@H]1CN([C@@H](C)CO)C(=O)CCCn2cc(nn2)CO[C@@H]1CN(C)S(=O)(=O)c1cccs1
2.0 | C[C@H](CO)N1C[C@H](C)[C@H](CN(C)C(=O)NC2CCCCC2)Oc2ccc(NC(=O)c3ccncc3)cc2CC1=O
20* | Cc1noc(C)c1NC(=O)Nc1ccc2c(c1)C(=O)N([C@H](C)CO)C[C@@H](C)[C@@H](CN(C)C(=O)Nc1c(C)noc1C)OCCCC[C@@H](C)O2
-3.2 | C[C@H](CO)N1C[C@H](C)[C@@H](CN(C)S(=O)(=O)c2cn(C)cn2)Oc2ccc(NC(=O)NC3CCCCC3)cc2CC1=O
-1.4 | C[C@H](CO)N1C[C@H](C)[C@H](CN(C)C(=O)Nc2ccccc2)Oc2ccc(NC(=O)CCN3CCOCC3)cc2C1=O
0.3 | C[C@@H]1CCCCO[C@H](CN(C)C(=O)Nc2ccc(F)cc2)[C@H](C)CN([C@@H](C)CO)C(=O)c2cc(NS(=O)(=O)c3ccccc3)ccc2O1
-2.7 | C[C@@H]1CN([C@H](C)CO)C(=O)Cc2cc(NC(=O)Cc3ccccc3)ccc2O[C@@H]1CN(C)S(=O)(=O)c1cccs1
-0.2 | C[C@H]1CN([C@@H](C)CO)C(=O)CCCn2cc(nn2)CO[C@@H]1CN(C)C
1.9 | CC(C)NC(=O)N(C)C[C@@H]1OCCCC[C@@H](C)Oc2ccc(NC(=O)Cc3ccccc3)cc2C(=O)N([C@@H](C)CO)C[C@@H]1C
0.9 | C[C@@H]1CN([C@@H](C)CO)C(=O)c2cc(NC(=O)Cc3cn(C)c4ccccc34)ccc2O[C@@H]1CN(C)C(=O)NC1CCCCC1
0.3 | C[C@H](CO)N1C[C@H](C)[C@@H](CN(C)S(=O)(=O)c2ccccc2)Oc2ccc(NC(=O)c3ccncc3)cc2CC1=O
2.8 | C[C@@H]1CN([C@@H](C)CO)C(=O)Cc2cc(NC(=O)Cn3cnnn3)ccc2O[C@@H]1CN(C)S(=O)(=O)c1ccccc1
-2.3 | C[C@@H]1CN([C@@H](C)CO)C(=O)c2cccc(NC(=O)C3CCOCC3)c2O[C@@H]1CN(C)C(=O)Nc1ccc(F)cc1
3.3 | CC(C)NC(=O)N(C)C[C@@H]1OCCCC[C@@H](C)Oc2ccc(NC(=O)Cc3ccccc3)cc2C(=O)N([C@@H](C)CO)C[C@H]1C
3.5 | C[C@H](CO)N1C[C@H](C)[C@@H](CN(C)Cc2ccc(C(=O)O)cc2)Oc2c(NC(=O)Nc3ccc(F)cc3)cccc2C1=O
5.1 | Cc1noc(C)c1NC(=O)N(C)C[C@@H]1Oc2ccc(NC(=O)Cc3cn(C)c4ccccc34)cc2CC(=O)N([C@H](C)CO)C[C@H]1C
? | C[C@@H]1CN([C@H](C)CO)C(=O)c2cccc(NC(=O)Nc3ccc4c(c3)OCO4)c2O[C@@H]1CN(C)C(=O)NC1CCCCC1
6.0 | C[C@@H]1CCCCO[C@@H](CN(C)C(=O)CCC(F)(F)F)[C@@H](C)CN([C@@H](C)CO)C(=O)c2cc(NS(=O)(=O)c3cccs3)ccc2O1
8.8 | C[C@@H]1CN([C@@H](C)CO)C(=O)Cc2cc(NC(=O)Cc3ccccc3)ccc2O[C@@H]1CN(C)S(=O)(=O)c1cccs1
-1.6 | C[C@H](CO)N1C[C@H](C)[C@H](CN(C)C(=O)Nc2ccc3c(c2)OCO3)Oc2ncc(C#Cc3ccccc3)cc2C1=O
? | C[C@@H]1CCCCO[C@H](CN(C)C(=O)Cc2ccccc2)[C@@H](C)CN([C@@H](C)CO)C(=O)c2cc(NS(C)(=O)=O)ccc2O1
-1.4 | C[C@@H]1CCCCO[C@@H](CN(C)C(=O)c2ccccc2)[C@@H](C)CN([C@H](C)CO)C(=O)c2cc(NC(=O)Nc3ccc(F)cc3)ccc2O1
6.1 | C[C@@H]1CN([C@@H](C)CO)C(=O)c2cc(NC(=O)Nc3ccc4c(c3)OCO4)ccc2O[C@@H]1CN(C)Cc1ccc(C(F)(F)F)cc1
-0.4 | Cc1noc(C)c1NC(=O)N(C)C[C@@H]1OCCCC[C@H](C)Oc2ccc(NS(C)(=O)=O)cc2C(=O)N([C@@H](C)CO)C[C@H]1C
1.6 | C[C@@H]1CN([C@H](C)CO)C(=O)Cc2cc(NS(=O)(=O)c3cn(C)cn3)ccc2O[C@H]1CN(C)S(=O)(=O)c1ccc(Cl)cc1
-0.4 | Cc1noc(C)c1S(=O)(=O)Nc1ccc2c(c1)C(=O)N([C@@H](C)CO)C[C@@H](C)[C@H](CN(C)C)OCCCC[C@@H](C)O2
-2.8 | COc1ccc(CN(C)C[C@H]2Oc3ccc(NC(=O)c4ccncc4)cc3CC(=O)N([C@H](C)CO)C[C@@H]2C)cc1
-2.8 | CC(C)NC(=O)N(C)C[C@H]1OCCCC[C@@H](C)Oc2ccc(NC(=O)Nc3ccccc3)cc2C(=O)N([C@@H](C)CO)C[C@H]1C
-3.7 | C[C@@H]1CN([C@@H](C)CO)C(=O)c2cccc(NC(=O)c3ccncc3)c2O[C@@H]1CN(C)Cc1ccc2c(c1)OCO2
-5.1 | C[C@@H]1CN([C@@H](C)CO)C(=O)c2cc(NS(=O)(=O)c3ccccc3)ccc2O[C@H]1CN(C)C(=O)NC1CCCCC1
1.1 | C[C@@H]1CN([C@@H](C)CO)C(=O)c2cc(NS(=O)(=O)c3cccs3)ccc2O[C@H]1CN(C)C(=O)Nc1ccc(F)cc1
0.9 | C[C@@H]1CN([C@H](C)CO)C(=O)Cc2cc(NC(=O)NC3CCCCC3)ccc2O[C@H]1CN(C)C(=O)Nc1ccccc1
-2.7 | C[C@@H]1CCCCO[C@@H](CN(C)C(=O)c2ccncc2)[C@@H](C)CN([C@@H](C)CO)C(=O)c2cc(NS(=O)(=O)c3cccs3)ccc2O1
-4.6 | C[C@H](CO)N1C[C@H](C)[C@@H](CN(C)C(=O)Nc2ccnc(N3CCOCC3)c2)OCc2cn(nn2)CCCC1=O
-4.1 | C[C@@H]1CCCCO[C@@H](CN(C)Cc2ccncc2)[C@@H](C)CN([C@H](C)CO)C(=O)c2cc(NC(=O)Nc3ccccc3)ccc2O1
-1.7 | Cc1noc(C)c1S(=O)(=O)Nc1ccc2c(c1)CC(=O)N([C@@H](C)CO)C[C@@H](C)[C@H](CN(C)C(=O)Nc1ccc(C(F)(F)F)cc1)O2
2.0 | C[C@@H]1CN([C@@H](C)CO)C(=O)Cc2cc(NC(=O)C3CC3)ccc2O[C@H]1CN(C)C(=O)Nc1cccc2ccccc12
3.6 | COc1ccc(S(=O)(=O)Nc2cccc3c2O[C@@H](CN(C)S(=O)(=O)c2cn(C)cn2)[C@H](C)CN([C@@H](C)CO)C3=O)cc1
-4.3 | C[C@H](CO)N1C[C@H](C)[C@H](CN(C)C(=O)Nc2ccc(F)cc2)Oc2ccc(NS(C)(=O)=O)cc2C1=O
2.3 | COc1ccc(C#Cc2cnc3c(c2)C(=O)N([C@H](C)CO)C[C@H](C)[C@H](CN(C)C(=O)NC2CCCCC2)O3)cc1OC
3.5 | C[C@@H]1CN([C@@H](C)CO)C(=O)c2cccc(NC(=O)c3ccncc3)c2O[C@@H]1CN(C)C(=O)NC1CCCCC1
-1.5 | Cc1noc(C)c1NC(=O)N(C)C[C@H]1Oc2ccc(NS(=O)(=O)c3cn(C)cn3)cc2CC(=O)N([C@@H](C)CO)C[C@H]1C
-1.7 | C[C@H](CO)N1C[C@H](C)[C@H](CN(C)C(=O)c2ccncc2)OCCCC[C@H](C)Oc2ccc(NS(=O)(=O)c3ccccc3)cc2C1=O
-7.2 | C[C@@H]1CN([C@H](C)CO)C(=O)c2cc(N(C)C)ccc2O[C@@H](C)CCCCO[C@@H]1CN(C)S(=O)(=O)c1cccs1
9.1 | Cc1noc(C)c1NC(=O)N(C)C[C@H]1Oc2c(NC(=O)NC3CCCCC3)cccc2C(=O)N([C@@H](C)CO)C[C@H]1C
0.3 | C[C@@H]1CN([C@H](C)CO)C(=O)Cc2cc(NS(=O)(=O)c3ccc(Cl)cc3)ccc2O[C@H]1CN(C)C(=O)Nc1ccc(F)cc1
5.6 | Cc1noc(C)c1NC(=O)N(C)C[C@H]1Oc2ccc(NC(=O)CCN3CCOCC3)cc2CC(=O)N([C@@H](C)CO)C[C@@H]1C
-6.9 | C[C@H]1CN([C@@H](C)CO)C(=O)c2cc(NC(=O)C3CC3)ccc2O[C@H]1CN(C)S(=O)(=O)c1cn(C)cn1
? | COc1ccc(S(=O)(=O)N(C)C[C@@H]2Oc3ccc(NC(=O)Cc4ccccc4)cc3C(=O)N([C@H](C)CO)C[C@@H]2C)cc1
? | C[C@H]1CN([C@@H](C)CO)C(=O)c2cccc(NC(=O)Nc3ccc(C(F)(F)F)cc3)c2O[C@H]1CN(C)Cc1ccc(C(=O)O)cc1
2.1 | CNC[C@H]1OCCCC[C@H](C)Oc2ccc(NC(=O)CCCN(C)C)cc2C(=O)N([C@@H](C)CO)C[C@@H]1C
-1.2 | C[C@H]1CN([C@@H](C)CO)C(=O)c2cc(NC(=O)NC3CCCCC3)ccc2O[C@@H]1CN(C)S(=O)(=O)c1cccs1
-2.9 | COC(=O)N(C)C[C@H]1OCc2cnnn2CCCC(=O)N([C@@H](C)CO)C[C@@H]1C
2.4 | C[C@H](CO)N1C[C@H](C)[C@@H](CN(C)C(=O)NC2CCCCC2)Oc2c(NC(=O)Nc3cccc4ccccc34)cccc2C1=O
-1.0 | C[C@H]1CN([C@@H](C)CO)C(=O)CCCn2cc(nn2)CO[C@@H]1CN(C)Cc1ccc2cccnc2c1

This is a subset (hit frequency here may not be typical).
